Tgondii IFNg: blocks Toxoplasma gondii growth in the presence of IFN-gamma; 69,000 tested, 3.8% active; Toxoplasma gondii growth in IFN-gamma-treated host cells; active compounds read low; reference of the scale not given here; activity change, negative = inhibition, %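 (about 20 µM by stock and volumes)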;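 active = below -70%; inconclusive = fit judged invalid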;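 note: host cells are HeLa cells infected with Toxoplasma gondii; parasite growth read as luciferase light; one replicate is shown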
* marks the source's active call; other numbers are inactive results; i = inactive; ? = inconclusive; & = joins results of further samples.

SMILES	Tgondii IFNg
FC(F)(F)C(Sc1ccccc1)=C(Sc1ccccc1)Sc1ccccc1	-80*
CC(C)NC(=O)C(=O)N1CCn2nc(C(=O)N3CCN(C)CC3)cc2C1	-48
CN1C(=O)c2cc(NS(=O)(=O)c3cccc(F)c3)ccc2OC[C@@H]2O[C@@H](CC(=O)NCCN3CCCCC3)CC[C@H]21	-12
CCNc1nc(-c2nnc(-c3cccc(C)c3)o2)nc2ccccc12	?
CCN1C(=O)CCc2cc(NC(=O)Cc3cccc(F)c3)ccc21	-18
CCOc1ccccc1CN(CC)C(=O)c1ccc2nccn2c1	-5
O=C(c1ccc2c(c1)OCO2)N1C[C@@H]2N[C@H](C1)C2c1ccc(-c2cncnc2)cc1 (stereo partly drawn)	24
N#Cc1cccc(CN2CCc3ncc(Cn4cccn4)n3CC2)c1	4
CCN(CC)C(=O)CC1CC2(CCN(S(=O)(=O)C3CC3)CC2)Oc2ccccc21 (stereo not drawn)	-12
O=C(Nc1cccc(F)c1)N1C[C@@H]2N[C@H](C1)C2c1ccc(-c2cncnc2)cc1 (stereo partly drawn)	16
O=C(Cn1ncc2c(N3CCCCC3)ncnc21)N1CCCCC1	73
COc1nccnc1-c1ccc(C)c2ncccc12	-38
O=C(O)C1CSC2c3ccccc3C(=O)N12 (stereo not drawn)	6
Cc1cnc2c(C(=O)Nc3cccc(CCc4ccncc4)c3)cnn2c1	-31
Cc1ccc2[nH]c(C(=O)O)c(CN3CCC(n4nc(C)cc4C)C3)c2c1 (stereo not drawn)	60
CN1CCN(CC#N)C(=O)C12CCN(S(=O)(=O)C1CC1)CC2	-48
O=C(CCn1nnc2ccccc21)Nc1nnc(-c2ccc3c(c2)OCO3)s1	-103*
CNCC(=O)N1CC(c2cc(Nc3nc(C)cs3)nc(C)n2)C1	8
FC(F)(F)c1cccc(N2CCN(C(=S)NCC3CCCO3)CC2)c1 (stereo not drawn)	-6
COc1ccccc1CC(=O)Nc1ccc2c(c1)CCC(=O)N2C	200
O=C(/C=C/c1ccccc1)NC(=O)c1ccccc1O	-66
CCOc1ccc(-c2nn[nH]n2)cc1OCC	-7
CCn1c(C2CCCNC2)nn(Cc2cc(-c3cccnc3)no2)c1=O (stereo not drawn)	-2
Cc1cc(CN2C[C@H](N3CCOCC3)C3OCCCC32)oc1C (stereo partly drawn)	1
CO[C@@H]1O[C@@H]2COC(c3ccccc3)O[C@@H]2[C@@H](OC)[C@@H]1O (stereo partly drawn)	4
COc1ccc(S(=O)(=O)Nc2cncc(C(=O)Nc3ccc(C)cc3)c2)cc1OC	31
C[C@H]1CCCCO[C@H](CN(C)C(=O)CCCN(C)C)[C@@H](C)CN([C@@H](C)CO)C(=O)c2cc(NC(=O)Nc3ccc4c(c3)OCO4)ccc2O1	173
CN1C(C)(C)CCCC1(C)C	11
CC(=O)NCC(=O)NC1CC2(CCN(c3ccccc3)CC2)c2ccccc21 (stereo not drawn)	-10
COCC#Cc1ccc([C@@H]2[C@@H](CO)N3CCCCN(C(=O)NC4CCCC4)C[C@@H]23)cc1	5

Structural class: the entries above with a cyano group.
SMILES	Tgondii IFNg
N#Cc1cccc(CN2CCc3ncc(Cn4cccn4)n3CC2)c1	4
CN1CCN(CC#N)C(=O)C12CCN(S(=O)(=O)C1CC1)CC2	-48

Further structures follow:
SMILES	Tgondii IFNg
CC(C)N1CCC(c2nnc3ccc(C(=O)C4CCC4)cn23)C1 (stereo not drawn)	43
C[Se]CC[C@H](N)C(=O)O	27
CCOC(=O)c1c(Nc2ccccc2F)sc(C(=O)c2ccc(Cl)cc2)c1N	-12
Cc1ccc(C(=O)N2CCC3(CC2)Nc2ccc(Cl)cc2-n2cccc23)cc1	-41
Cc1nn(CC(C)C(=O)Nc2ccc3c(c2)nc(CN2CCCCC2)n3C)c(C)c1C (stereo not drawn)	11
O=C(CC1SC(=Nc2cccc(F)c2)NC1=O)Nc1cc(Cl)ccc1Cl (stereo not drawn)	5
C=CCn1c2c(ccc1=O)CCN(Cc1ccc(OC)cc1)CC2	0
Cc1c(CC(C)(C)C(=O)O)n(Cc2ccc(Cl)cc2)c2ccc(F)cc12	19&10
O=C(NCc1nc(C2CCCCC2)no1)c1cccc(-n2cnnc2)c1	-4
CCCCS(=O)(=O)NC1CCc2c(ccc(=O)n2CC2CC2)C1 (stereo not drawn)	-5
CC(C)CC(=O)N1C[C@H]2CCCN(S(=O)(=O)c3ccc4c(c3)OCCO4)[C@H]2C1	8
O=C(COc1ccc(Cl)cc1)Nc1ncccn1	19
O=C(NC1CCCc2ccccc21)c1nc(Nc2ccc(F)cc2)c2ccccc2n1 (stereo not drawn)	-22
COCc1n[nH]c2c1CN(C1CCOCC1)C2	34
CNC[C@H]1OCCCC[C@@H](C)Oc2ccc(NS(=O)(=O)c3ccc(F)cc3)cc2C(=O)N([C@H](C)CO)C[C@H]1C	193

Five structures from above, arranged by length of the SMILES, ascending.
SMILES	Tgondii IFNg
O=C(COc1ccc(Cl)cc1)Nc1ncccn1	19
C=CCn1c2c(ccc1=O)CCN(Cc1ccc(OC)cc1)CC2	0
CCOC(=O)c1c(Nc2ccccc2F)sc(C(=O)c2ccc(Cl)cc2)c1N	-12
Cc1c(CC(C)(C)C(=O)O)n(Cc2ccc(Cl)cc2)c2ccc(F)cc12	19&10
CNC[C@H]1OCCCC[C@@H](C)Oc2ccc(NS(=O)(=O)c3ccc(F)cc3)cc2C(=O)N([C@H](C)CO)C[C@H]1C	193

Remaining list, next part
SMILES	Tgondii IFNg
Cc1cc(-c2cc(OC(=O)c3ccccc3)ccc2Cl)cc2nnc(Nc3ccc(OCCN4CCCC4)cc3)nc12	-28
CO[C@H](CN(C)Cc1cc(F)ccc1F)[C@H](C)CN(C(=O)Nc1ccc(C(F)(F)F)cc1)[C@H](C)CO	-67
O=S(=O)(c1ccc(Br)cc1)N1CCC2(CC1)Nc1ccccc1-n1cccc12	9
CSCC[C@@H]1NC(=O)[C@@H]2CCCN2C1=O	10
COc1cc2c(cc1OC)C(c1ccccc1)CC2=O (stereo not drawn)	-6
COc1cc2c(cc1NC(C)=O)NC(=O)CC2c1ccnn1-c1ccccc1 (stereo not drawn)	7
CN1C(=O)c2cc(NC(=O)c3cccc(F)c3)ccc2OC[C@@H]2O[C@H](CC(=O)NCc3ccccc3Cl)CC[C@@H]21	-68
CN(Cc1cccnc1)C1CCN(C(=O)[C@H]2CCCO2)C(C(=O)O)C1 (stereo partly drawn)	-49
CN(Cc1ccc(S(C)(=O)=O)cc1)C1Cc2ccccc2C1	3
Cc1cccc(OCC(=O)N2CCn3nc(C(=O)N4CCN(C)CC4)cc3C2)c1	-19
COc1ccc(NC(=O)CC2(Cc3ccccc3)CCOC(C)(C)C2)cc1 (stereo not drawn)	4
O=C(Cc1ccc(F)cc1)N1CCn2nnc(COc3cccnc3)c2C1	4
CC(C)N1CCC2(CC1)CN(C(=O)Nc1ccccc1)Cc1ccccc12	-52
CCOc1ccccc1-c1nc(Cc2noc(-c3cccnc3)n2)c(C)o1	-79*
CCc1ccc(Nc2nc(C(=O)NCCCOC)nc3ccccc23)cc1	-70

A second format for some results above.
molecule | Tgondii IFNg
COc1cc2c(cc1NC(C)=O)NC(=O)CC2c1ccnn1-c1ccccc1 (stereo not drawn) | 7
CN1C(=O)c2cc(NC(=O)c3cccc(F)c3)ccc2OC[C@@H]2O[C@H](CC(=O)NCc3ccccc3Cl)CC[C@@H]21 | -68
CN(Cc1cccnc1)C1CCN(C(=O)[C@H]2CCCO2)C(C(=O)O)C1 (stereo partly drawn) | -49
CN(Cc1ccc(S(C)(=O)=O)cc1)C1Cc2ccccc2C1 | 3
Cc1cccc(OCC(=O)N2CCn3nc(C(=O)N4CCN(C)CC4)cc3C2)c1 | -19

(list continues)
SMILES	Tgondii IFNg
CCCc1ncc(-c2ccncc2C)c(C2CCCN2C(=O)CCc2c(C)noc2C)n1 (stereo not drawn)	-5
O=C(O)CCCCCNS(=O)(=O)/C=C/c1ccccc1	0
COc1ccc(-c2nc(Cn3nnc(-c4nc(-c5ccccn5)no4)c3C)c(C)o2)cc1	3
CCn1c(SCc2nc(-c3ccc(OC)cc3)oc2C)nc(=O)c2c(C(=O)OC)cc(C)nc21	i
NC(=O)c1cnc(-c2ccccc2)nc1CCNC(=O)CCC1CCCC1	-51
COc1ccc(C(=O)N2CCN(c3cnn(C)c(=O)c3Cl)CC2)cc1OC	0
Cc1oc(-c2cccc(Cl)c2)nc1Cn1nnc(C(=O)Nc2ccc(F)c(F)c2)c1C	-61
O=C(O)Cn1cc(Br)c(=O)[nH]c1=O	-64
CCOCC(=O)N1C[C@@H]2COC[C@]2(COCC2CCOCC2)C1	0
CC12CN3CC(C)(CN(C1)C3c1ccc(Br)cc1O)C2 (stereo not drawn)	1
COCC1(C(=O)NCc2cccnc2Oc2ccc(F)c(F)c2)CC1	-4
Cc1ccc(-c2nc(C)c(CCNS(=O)(=O)c3ccc(Cl)cc3)s2)cc1	i
Cc1cc(C)n(-c2nc3nonc3nc2-n2nc(C)cc2C)n1	10
CNc1cc(CC2CCN(C(C)=O)C2)ncn1 (stereo not drawn)	-7
Cc1ccccc1SC1CCN(C(=O)Cc2nn[nH]n2)CC1	-4
COc1ccc(-c2nc(NC3CCCC3)c3ccccc3n2)cc1	-56
COc1cccc(C(NC(=O)C23CC4CC(CC(O)(C4)C2)C3)c2ccccc2)c1 (stereo not drawn)	-14
Cc1cccc(S(=O)(=O)N2CCc3nc(-c4cnn(C)c4)nc(NC4CC4)c3C2)c1	-94*
Cn1cc(-c2cc3n(n2)CCC(=O)N3CC(=O)N2CCN(c3ccccn3)CC2)c2ccccc21	127
O=C(CN1C(=O)CCc2cc(Br)ccc21)NCc1cccs1	-19
COc1ccc([C@H]2Oc3cc(OC)cc(OC)c3C[C@H]2O)cc1	10
C[C@H](CO)N1C[C@H](C)[C@H](CN(C)S(=O)(=O)c2cccs2)OCc2ccccc2-c2ccccc2C1=O	-6
Cc1ccc(C2=NC3(CCN(CC(=O)NCc4ccc(F)cc4)CC3)NC2=O)cc1C	-36
CCC(=O)N1CCC[C@]2(C[C@@H](OCC3CC3)CO2)C1	-9
CCCN1C(=O)CCc2cc(NC(=O)c3ccc(F)c(Cl)c3)ccc21	-82*
N#Cc1nccnc1S(=O)(=O)CCO	30
Cc1[nH]c2ccc(CNC(=O)C3CC(=O)N(Cc4ccccn4)C3)cc2c1C (stereo not drawn)	5
COC(=O)[C@@H]1C[C@@H](NC(=O)CCC(=O)N2CCCCCC2)CN1C	-6
Cc1ccsc1CN(C)C(=O)c1ccc(-c2ncn[nH]2)cc1	6
CCCCN1CCN(C(=O)C(O)c2ccccc2Cl)CC1=O (stereo not drawn)	-50
COc1ccccc1CNC(=O)C[C@H]1C=C[C@@H](NC(=O)CC2CC2)[C@@H](CO)O1	53
O=C(NCc1cccnc1)C1=NOC2(CCCN(C(=O)Cc3cccc(F)c3)C2)C1 (stereo not drawn)	1
C=COCCCNc1ncc(-c2ccsc2)c(-c2cnc(OC)nc2OC)n1	-27
O=C(Cn1ncc2c(N3CCN(c4ccccn4)CC3)ncnc21)Nc1ccc(F)c(F)c1	163
CCOC(=O)Cn1nc2c3cc(OC)c(OC)cc3ncn2c1=O	49
COc1ccccc1N1CCN(C(=O)CCC2Nc3c4ccccc4nc(=S)n3C2=O)CC1 (stereo not drawn)	5
CCCC(=O)Nc1ccc2c(c1)C(=O)N(C)C[C@@H](OC)[C@H](C)CN(Cc1ccc(F)cc1)[C@@H](C)CO2	69
CC(C)CN(Cc1ccsc1)C(=O)c1cccnc1N1CCOCC1	-12
CCS(=O)(=O)N1CCC2(CC1)OC(=O)C(C)=C2C(=O)NCc1ccc(F)cc1	10
O=C(c1cc(-c2ccn[nH]2)n2ccccc12)C1CC1	19
CCOc1ccc(CN2CCC3(CC2)CNC(=O)C3)cn1	-4
O=C1CCCN1CCCn1ccnc1-c1cccc(-n2cccn2)c1	1
CSc1sc(C(=O)Nc2cccc(C(F)(F)F)c2)cc1C#N	-51
Cn1cc(CN2CCCC23CCN(S(C)(=O)=O)CC3)cn1	-34
COc1cc(-c2nc(CSc3nc4c(=O)[nH]c(C)nc4n3C)c(C)o2)cc(OC)c1OC	-30
O=C(NC1(c2ccc(Cl)cc2)CCC1)c1ccc2c(c1)OCCO2	115
CCOC(=O)N1CCC2(CC1)OC(=O)C(C)=C2C(=O)NCc1cccc(OC)c1OC	8
C[C@@H]1CN([C@@H](C)CO)C(=O)c2cc(-c3ccc(F)cc3)cnc2O[C@H]1CN(C)S(C)(=O)=O	65
C=CCN1C(=O)CCC12CCC(NC(=O)c1cnccn1)CC2 (stereo not drawn)	-44
Cc1cccc(C(=O)N2CCC3(CCC(COCC4CC4)N3C)CC2)c1 (stereo not drawn)	-6
C[C@]12CC[C@@H]3c4ccc(O)cc4C(=O)C[C@H]3[C@@H]1CC[C@@H]2O	-3
Cc1ccsc1C(CNC(=O)c1cc2n(n1)CCCN(C)C2)N(C)C (stereo not drawn)	71
CCCNC(=O)[C@@H]1CCCC[C@@H]1C(=O)NCc1cc(C)oc1C(F)(F)F	5
Cc1ccc(S(=O)(=O)Nc2ccc3c(c2)CC(=O)N([C@H](C)CO)C[C@@H](C)[C@H](CN(C)S(=O)(=O)c2ccccc2)O3)cc1	-53
CC[C@H]1CN(C(=O)c2cnn3ccccc23)CC[C@@]1(C)O	6
CCS(=O)(=O)N1CCC2(CC1)OC(=O)C(C)=C2C(=O)Nc1ccc2c(c1)OCO2	-52
O=C(C[C@H]1C=C[C@@H](NC(=O)Cc2cccnc2)[C@H](CO)O1)NCc1ccc2c(c1)OCO2	-2
CC(C)(C)c1ccc(Oc2ccc(NC(=O)Cc3cccs3)cn2)cc1	-77*

An excerpt. The share of hits here may be higher or lower than overall.
